Source: PubChem (National Center for Advancing Translational Sciences (NCATS))
TDP1 block: TDP1 (human) enzyme inhibition. hit rate 0.28% among 350,000. Potency, µM (highest dose often 130 µM), for the others: at the highest dose activity change, negative = inhibition, most hits filed as inhibitors. Q9NUW8. recombinant TDP1, AlphaScreen DNA substrate cleavage; active = well fitted inhibition curve with a large enough effect; also: nearly all actives have a fitted effect of over 40% in size
Target sequence (Q9NUW8 whole entry, looked up): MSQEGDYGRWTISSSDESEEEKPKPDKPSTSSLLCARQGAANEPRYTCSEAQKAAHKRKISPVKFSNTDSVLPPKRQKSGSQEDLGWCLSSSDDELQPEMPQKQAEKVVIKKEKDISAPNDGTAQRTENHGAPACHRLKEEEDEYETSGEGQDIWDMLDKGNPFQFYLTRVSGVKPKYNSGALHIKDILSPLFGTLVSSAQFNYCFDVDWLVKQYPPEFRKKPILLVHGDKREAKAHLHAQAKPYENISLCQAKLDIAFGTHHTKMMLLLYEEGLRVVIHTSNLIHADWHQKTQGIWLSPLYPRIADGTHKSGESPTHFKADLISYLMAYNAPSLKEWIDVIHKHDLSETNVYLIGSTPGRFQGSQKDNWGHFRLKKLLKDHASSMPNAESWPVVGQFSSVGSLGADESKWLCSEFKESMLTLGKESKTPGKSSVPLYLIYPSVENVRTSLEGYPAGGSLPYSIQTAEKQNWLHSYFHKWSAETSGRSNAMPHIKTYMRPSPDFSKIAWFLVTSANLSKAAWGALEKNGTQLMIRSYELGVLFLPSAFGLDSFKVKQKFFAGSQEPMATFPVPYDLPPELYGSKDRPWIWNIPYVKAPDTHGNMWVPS
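Signal: AlphaScreen proximity between streptavidin donor and anti-FITC acceptor beads on intact substrate. Reaction: Tdp1 1 nM, substrate 15 nM final, 5 min RT after 15 min compound preincubation.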
* hit, by the source's call; [ ] = remark or other dose. % is scaled to controls: 0 for no effect and ±100 for the full control effect; potency is read from the fitted curve at half-maximal effect. An excerpt, and most or all hits are left out here.

The first 3 compounds as a preview:
Results for Nc1c([N+](=O)[O-])cnnc1-c1ccccc1 ?
TDP1 block: 3%

Results for CCOC(=O)CC(=O)Nc1ccn[nH]1 ?
TDP1 block: 9%

What do the screens show for `Cc1c(Cl)c([N+](=O)[O-])nn1CCCC(=O)Nc1cccc(O)c1`?
TDP1 block: 7%

This part in full, previewed entries included:
Results for Nc1c([N+](=O)[O-])cnnc1-c1ccccc1 ?
TDP1 block: 3%

Results for CCOC(=O)CC(=O)Nc1ccn[nH]1 ?
TDP1 block: 9%

What do the screens show for `Cc1c(Cl)c([N+](=O)[O-])nn1CCCC(=O)Nc1cccc(O)c1`?
TDP1 block: 7%

Results for O=S(=O)(Nc1ccc2c(c1)OCCO2)c1ccc(Br)s1 ?
TDP1 block: 7%

How did FC(F)(F)c1cccc(Cc2noc(CN3CCSCC3)n2)c1 do in these assays?
TDP1 block: 3%

What do the screens show for `CC(=O)NCc1ccc(S(=O)(=O)NC(C)CCc2ccccc2)cc1` (stereo not drawn)?
TDP1 block: 0%[0.0935 µM]

How did CC1CCN(Cc2nc(-c3ccccc3)no2)CC1 do in these assays?
TDP1 block: 6%

Results for COc1ccc2c(c1)CCN1C2CCN2C(=O)CCC21 (stereo not drawn) ?
TDP1 block: 4%

How did CS(=O)(=O)c1ccc(Cl)c(NC(=O)COC(=O)CNC(=O)c2ccccc2)c1 do in these assays?
TDP1 block: -3%

Results for Cc1cccc(OCc2nnc(SCC(=O)NCC3CCCO3)n2C)c1 (stereo not drawn) ?
TDP1 block: 2%

What do the screens show for `Cc1ccc(NC(=O)c2ccc(Cn3cc([N+](=O)[O-])cn3)cc2)c(C)c1`?
TDP1 block: 0%

How did c1ccc(NCC2OCc3ccccc3CO2)cc1 do in these assays?
TDP1 block: 3%

The closing 3 records of the part before open the next one:
Results for Cc1cccc(OCc2nnc(SCC(=O)NCC3CCCO3)n2C)c1 (stereo not drawn) ?
TDP1 block: 2%

What do the screens show for `Cc1ccc(NC(=O)c2ccc(Cn3cc([N+](=O)[O-])cn3)cc2)c(C)c1`?
TDP1 block: 0%

How did c1ccc(NCC2OCc3ccccc3CO2)cc1 do in these assays?
TDP1 block: 3%

What do the screens show for `Cc1ccccc1OCC(=O)N1N=C(c2cccnc2)CC1(O)C(F)(F)F` (stereo not drawn)?
TDP1 block: 2%

How did CCCC(=O)Nc1ccc2c(c1)nc(CN1CCCCC1)n2C do in these assays?
TDP1 block: 2%

Results for O=C(NCc1ccco1)c1ccc(S(=O)(=O)N2CCCc3ccccc32)cc1 ?
TDP1 block: -2%

What do the screens show for `COc1ccccc1OCC(=O)Nc1nc(C)c(C)s1`?
TDP1 block: 9%

What do the screens show for `Cc1cc(S(=O)(=O)NCc2ccco2)c(C)s1`?
TDP1 block: 6%

Results for Cc1ccc(NC(=O)CCSCCC(=O)Nc2ccc(C)c(C)c2)cc1C ?
TDP1 block: 5%

How did COC(=O)C1=C(C)C(c2cccs2)NC(=O)N1C (stereo not drawn) do in these assays?
TDP1 block: 0%

How did Cc1ccccc1N=C(NOCc1ccccc1)c1nonc1N do in these assays?
TDP1 block: -2%[56.1 µM]

Results for COc1ccc(CNC2=CC(=O)CC(C)(C)C2)cc1 ?
TDP1 block: -2%

How did COc1ccc(-c2cc(NCc3ccccn3)n3ncnc3n2)cc1 do in these assays?
TDP1 block: 4%

What do the screens show for `Cc1cccc(OCc2nnc(SCC(=O)N(C(C)C)C(C)C)n2Cc2ccco2)c1C`?
TDP1 block: 8%

Results for O=C1[C@@H]2C(c3ccc(F)cc3)=NO[C@@H]2C(=O)N1Cc1ccccc1 ?
TDP1 block: 0%

What do the screens show for `COc1ccc(CN2CCN(C(=O)CCC(=O)Nc3nnc(C(C)C)s3)CC2)cc1F`?
TDP1 block: 0%

How did CCOC(=O)c1ccc2[nH]c(C)c(CCC(C)=O)c(=O)c2c1 do in these assays?
TDP1 block: 6%

What do the screens show for `CCOc1ccc(/C(O)=C2/C(=O)C(=O)N(Cc3cccnc3)C2c2ccc(N(C)C)cc2)c(C)c1` (stereo not drawn)?
TDP1 block: 5%

Results for O=C(NN=C1CCCCCCC1)c1ccc2ccccc2n1 ?
TDP1 block: 10%

What do the screens show for `COc1ccc(/C(N)=N/OC(=O)c2cccc([N+](=O)[O-])c2C)cc1OC`?
TDP1 block: 6%

Results for CCc1cccc(CC)c1NC(=O)CSc1nnc(C(C)C)n1CC ?
TDP1 block: 3%

What do the screens show for `C/C(=N\NC(=O)c1nonc1N)c1cccs1`?
TDP1 block: -4%

What do the screens show for `CC(=O)OC(C(=O)NCCc1ccccc1)c1cccnc1` (stereo not drawn)?
TDP1 block: -3%

What do the screens show for `Cc1nn(-c2ccccc2)c2sc(C(=O)OC3CCOC3=O)cc12` (stereo not drawn)?
TDP1 block: 8%

What do the screens show for `COC(=O)c1ccc(CN2CCN(CCC(C)C)C(CCO)C2)cc1` (stereo not drawn)?
TDP1 block: 5%

Results for CC(C)NC(=O)NS(=O)(=O)c1cnccc1N1CCCCC1 ?
TDP1 block: 1%

Results for O=C(N/N=C/c1ccccc1Cl)c1cccc(F)c1 ?
TDP1 block: 6%

Pulled by structure from above (4):
What do the screens show for `C/C(=N\NC(=O)c1nonc1N)c1cccs1`?
TDP1 block: -4%

What do the screens show for `COc1ccc(/C(N)=N/OC(=O)c2cccc([N+](=O)[O-])c2C)cc1OC`?
TDP1 block: 6%

Results for CCc1cccc(CC)c1NC(=O)CSc1nnc(C(C)C)n1CC ?
TDP1 block: 3%

What do the screens show for `Cc1nn(-c2ccccc2)c2sc(C(=O)OC3CCOC3=O)cc12` (stereo not drawn)?
TDP1 block: 8%

Five structures out of the list, arranged by heavy-atom count, rising:
Results for O=C(N/N=C/c1ccccc1Cl)c1cccc(F)c1 ?
TDP1 block: 6%

How did CCOC(=O)c1ccc2[nH]c(C)c(CCC(C)=O)c(=O)c2c1 do in these assays?
TDP1 block: 6%

What do the screens show for `COC(=O)c1ccc(CN2CCN(CCC(C)C)C(CCO)C2)cc1` (stereo not drawn)?
TDP1 block: 5%

What do the screens show for `COc1ccc(/C(N)=N/OC(=O)c2cccc([N+](=O)[O-])c2C)cc1OC`?
TDP1 block: 6%

What do the screens show for `COc1ccc(CN2CCN(C(=O)CCC(=O)Nc3nnc(C(C)C)s3)CC2)cc1F`?
TDP1 block: 0%

The results go on.
What do the screens show for `COc1ccccc1CCNC(=O)c1cc(COc2cccc(C(F)(F)F)c2)on1`?
TDP1 block: -3%

How did CC(C)=CC(=O)OCC(=O)Nc1cc(C)ccc1C do in these assays?
TDP1 block: -1%

What do the screens show for `CCOC(=O)C1CCN(C(=O)c2cc3cc(C)ccc3[nH]2)CC1`?
TDP1 block: 2%

Results for COc1ccc(C)cc1S(=O)(=O)N(C)CC(=O)N1CCC(C)CC1 ?
TDP1 block: 2%

What do the screens show for `Cc1cc(C)c(NC(=O)C2=CCN(S(=O)(=O)c3ccc(F)cc3)CC2)c(C)c1`?
TDP1 block: 1%

How did S=c1[nH]nc(-c2ccco2)n1/N=C/c1cccs1 do in these assays?
TDP1 block: 2%

Results for CC(C)c1ccc(N2CC(C)(C)C2=O)cc1 ?
TDP1 block: -1%

Results for O=C(/C=C/c1cccs1)Nc1sc2c(c1C(=O)O)CCCC2 ?
TDP1 block: 10%

What do the screens show for `Cc1c(C(=O)N2CCN(c3ccc(F)cc3)CC2)oc2c1C(=O)CCC2`?
TDP1 block: 2%

What do the screens show for `COc1ccc(C(=O)CNc2ccc(C)cc2C)cc1`?
TDP1 block: 6%

How did Cn1cc(SCC(=O)Nc2nccs2)c2ccccc21 do in these assays?
TDP1 block: 10%

How did CN(Cc1ccon1)Cc1cn(C)nc1-c1cccc(Cl)c1 do in these assays?
TDP1 block: -3%

What do the screens show for `CCOC(=O)C1CCN(C(=O)CSc2ccc(Cl)cc2)CC1`?
TDP1 block: 0%

Results for Cc1ccc(C(=O)OC2CCCN(C)C2)cc1 (stereo not drawn) ?
TDP1 block: 5%

What do the screens show for `CSc1ccccc1NC(=O)CN1CC(C)OC(C)C1` (stereo not drawn)?
TDP1 block: 0%

Results for COC(=O)CSc1nc(C)c2ccc(OC)cc2n1 ?
TDP1 block: 2%

How did CCOc1ccccc1CNc1nc2nc3c(c(=O)n2[nH]1)CCC3 do in these assays?
TDP1 block: 0%

What do the screens show for `CCOC(=O)/C(C#N)=C/C1=C(N2CCOCC2)CC(C)(C)OC1`?
TDP1 block: 4%

What do the screens show for `Cc1ccc(S(=O)(=O)N2CCOCC2)cc1NC(=O)COC(=O)CCC(=O)c1cccs1`?
TDP1 block: 2%

What do the screens show for `O=C(NC1CCCCC1)C1COc2ccccc2O1` (stereo not drawn)?
TDP1 block: 4%

What do the screens show for `Cc1ccnn1-c1ccc(C(=O)OCC(=O)Nc2ccc(F)cc2)cc1`?
TDP1 block: 3%

How did CCOC(=O)c1c(-c2cccs2)csc1NC(=O)CCCC(=O)O do in these assays?
TDP1 block: 0%

Results for CC(Cc1ccccc1)C(=O)N(C)Cc1cccnc1 (stereo not drawn) ?
TDP1 block: 4%
